# Source: PubChem (several laboratories)
# HSV replic up: enhancers of HSV replication in host cells, fold increase, host cell viability; HSV replication augmentation in cells; maximum fold increase; hit rate 0.005% among 220,000;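 active means peak rise of 1.5-fold or more in the series; tested in PC3 cells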;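 further: first round at 10 µM; read as green reporter fluorescence; hits show the peak of a series up to 25 µM; 1 = signal of infected wells without compound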
# PKD1 inh: inhibitors of human PKD1 kinase, biochemical, fluorescence polarization; PKD1 kinase fluorescence polarization assay; hit rate 0.056% among 200,000; inhibition, %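 (about 10 µM by stock and volumes)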; AID 797, 2007;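 active means inhibition of 50% or more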;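 further: controls were vehicle for no effect and a reference inhibitor for full effect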
# RGS16-Gao HTS: modulators of RGS16 binding to Galphao, primary screen, biochemical, human proteins, multiplexed bead flow cytometry; hit rate 0.38% among 220,000; binding response (% of control), % at 10 µM; bead-based flow cytometry RGS16-Galphao binding, fluorescence; actives lie on both sides;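 active means below 25% or above 175%, edge rows of some plates excepted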;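 further: Galphao activated by GDP with aluminum fluoride before binding; 100% = wells without compound and 0% = beads without RGS; some results beyond the cut were filed as inactive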
# Target sequence (O15492 whole entry, looked up): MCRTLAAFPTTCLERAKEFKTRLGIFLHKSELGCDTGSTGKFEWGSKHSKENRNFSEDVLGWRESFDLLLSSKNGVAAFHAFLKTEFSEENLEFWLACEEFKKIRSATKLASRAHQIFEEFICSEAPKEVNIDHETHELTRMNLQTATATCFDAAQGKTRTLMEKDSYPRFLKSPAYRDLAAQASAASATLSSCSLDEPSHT
# Target sequence (P09471 whole entry, looked up): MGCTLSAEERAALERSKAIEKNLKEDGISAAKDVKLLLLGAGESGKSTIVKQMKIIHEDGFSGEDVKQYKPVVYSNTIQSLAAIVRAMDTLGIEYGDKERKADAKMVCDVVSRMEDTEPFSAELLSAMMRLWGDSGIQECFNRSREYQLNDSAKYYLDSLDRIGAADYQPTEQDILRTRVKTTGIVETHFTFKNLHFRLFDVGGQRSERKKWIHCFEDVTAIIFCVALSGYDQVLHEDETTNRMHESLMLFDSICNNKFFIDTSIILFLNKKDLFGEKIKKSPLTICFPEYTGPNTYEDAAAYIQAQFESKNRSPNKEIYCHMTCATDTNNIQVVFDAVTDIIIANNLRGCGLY
# INS promoter inh: inhibitors of insulin promoter-driven GFP, primary screen, imaging, TRM-6 cells (human fetal islet line), eGFP reporter, cell count; hit rate 0.9% among 130,000; inhibition, % at 2 µM; AID 1273, 2008; reporter expression induced with tamoxifen;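 active means inhibition above the mean plus 3 SD, with well images judged a real hit on visual review, cut at about 60% in these data, passing the limit was not always enough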
# GALR2 agonist: GALR2 receptor agonists, primary screen, cell-based. hit rate 0.48% among 140,000. activation, %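 (tested at 5 µM)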. GALR2-expressing cells, agonist activation read-out. Galanin receptor type 2 (Homo sapiens), O43603;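 active means above mean plus 3 SD of all compounds, about 5% in these data, not always enough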;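 further: 0% = vehicle buffer wells and 100% = reference agonist at full effect; tested in CHO reporter cells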
# Target sequence (O43603 whole entry, looked up): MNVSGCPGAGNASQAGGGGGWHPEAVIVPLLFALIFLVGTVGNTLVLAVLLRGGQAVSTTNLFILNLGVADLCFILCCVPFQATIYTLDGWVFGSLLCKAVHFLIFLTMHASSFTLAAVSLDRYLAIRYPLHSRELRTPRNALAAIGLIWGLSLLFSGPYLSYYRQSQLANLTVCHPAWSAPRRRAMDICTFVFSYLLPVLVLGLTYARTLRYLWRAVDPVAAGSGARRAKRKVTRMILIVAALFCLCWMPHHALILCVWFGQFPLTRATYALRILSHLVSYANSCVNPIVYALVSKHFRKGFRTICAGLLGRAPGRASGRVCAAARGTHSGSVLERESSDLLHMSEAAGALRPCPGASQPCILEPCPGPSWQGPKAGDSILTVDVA
# INS promoter inh cell count: recorded beside INS promoter inh, whose call it bears; normalized cell count, %; measured here: cell count, toxicity; reference of the scale not given here;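 cells exposed to compound for 48 h; stained nuclei by imaging scaled within each plate; lower means fewer cells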
# HSV replic up primary fold: second read-out of HSV replic up, no call of its own (marks repeat the call); fold increase; compound at 10 µM; measured here: primary screen fold increase 10 uM; tested in PC3 cells;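 GFP signal in the first replicate; 1 = infected wells without compound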
# Starred values were filed as active, the others as inactive; i = inactive; nt = no result given. Not a hit list. About 1.1% of those tested had a hit in this group.
SMILES,HSV replic up,HSV replic up primary fold,PKD1 inh,RGS16-Gao HTS,INS promoter inh,INS promoter inh cell count,GALR2 agonist
O=C(CSc1nnc(C23CC4CC(CC(C4)C2)C3)o1)Nc1ccc(N2CCOCC2)c(Cl)c1,i,0.96,1,102,30,117,-3.4
CCOc1cc(NS(=O)(=O)c2ccc(NC(C)=O)cc2)c(OCC)cc1NC(=O)c1cccs1,i,0.94,-7,102,-17,142,1.5
N#C/C(=C\c1ccccc1OCc1ccc(C(=O)O)cc1)c1ccccc1,i,0.92,0,103,-14,72,nt
Cc1cc(C)cc(Oc2nc3ccccn3c(=O)c2/C=C(\C#N)C(=O)NC2CCS(=O)(=O)C2)c1 (stereo unspecified),i,0.81,nt,100,nt,nt,nt
CCS(=O)(=O)N1CCC(NC(C)=O)(c2ccccc2)CC1,i,0.97,-10,84,nt,nt,-2.6
COc1ccc(Cc2nc3ccccc3[nH]2)cc1OC,i,1,-10,104,nt,nt,nt
COc1ccc(/C=N/n2c(-c3n[nH]c4c3CCC4)n[nH]c2=S)cc1OC,i,0.94,-10,89,-40,92,-0.1
CC12CCC(C(=O)N(CCCCN3CCN(Cc4ccccc4)CC3)C1=O)C2(C)C (stereo unspecified),i,0.92,nt,104,nt,nt,nt
O=S(=O)(c1ccc(Cl)cc1)N1CCN(C2CCCCCC2)CC1,i,1.1,0,90,-50,143,-0.8
O=C(OC1CCOC1=O)c1ccc2ccccc2n1 (stereo unspecified),i,0.94,-1,99,8,91,-2.0
Cc1ccc(C(=O)OC2OC(=O)C(Cl)=C2N2CCOCC2)cc1 (stereo unspecified),i,0.86,2,84,nt,nt,-0.8
O=C1C2C3c4ccccc4C(c4ccccc43)C2C(=O)N1c1ccncc1 (stereo unspecified),i,1,8,107,nt,nt,nt
CC(=O)Nc1ccc(S(=O)(=O)NCc2cccnc2)cc1,i,1,2,37,-53,57,0.3
COCC(=O)Nc1ccc(Br)cc1,i,1.1,2,97,73*,44*,-3.8
O=C(CSc1nc2ccccc2s1)N/N=C/c1ccccc1C(=O)O,i,0.89,nt,103,nt,nt,nt
CCCCCCCOC1(c2ccccc2)OC(=O)c2ccccc21 (stereo unspecified),i,0.79,8,100,nt,nt,-2.4
COc1ccc(-c2cc(C(=O)N3CCN(C(c4ccccc4)c4ccccc4)CC3)no2)cc1OC,i,0.99,-7,99,nt,nt,-0.1
Cn1cnnc1SCC(=O)N1CCc2ccccc21,i,1,-4,98,44,177,-1.7
CC(=O)Nc1cccc(NC(=O)c2c(-c3c(Cl)cccc3Cl)noc2C)c1,i,1,-12,77,nt,nt,-0.9
O=C(O)CC(c1cccc2ccccc12)N1Cc2ccccc2C1=O (stereo unspecified),i,1,-4,102,-21,88,nt
O=C(Nc1ccccc1N1CCCC1)c1cccc(Cl)c1Cl,i,1.1,-3,110,-57,118,nt
O=C(COC(=O)C1CCN(S(=O)(=O)c2cccs2)CC1)NCc1ccccc1,i,0.95,-2,98,27,103,nt
CC(=O)c1ccc(OC(C)C)c(CN2CCCCC2)c1,i,0.93,-21,106,nt,nt,-2.9
Cc1ccc(C(=O)c2cc([N+](=O)[O-])ccc2N2CCCCC2)cc1,i,0.57,-1,103,nt,nt,3.5
COc1ccc(NC(=O)c2ccc3c(c2)NC(=O)CO3)cc1OC,i,0.94,-8,99,0,89,nt

# Quoted from the results shown, eleven compounds:
SMILES,HSV replic up,HSV replic up primary fold,PKD1 inh,RGS16-Gao HTS,INS promoter inh,INS promoter inh cell count,GALR2 agonist
COc1ccc(Cc2nc3ccccc3[nH]2)cc1OC,i,1,-10,104,nt,nt,nt
COc1ccc(/C=N/n2c(-c3n[nH]c4c3CCC4)n[nH]c2=S)cc1OC,i,0.94,-10,89,-40,92,-0.1
CC12CCC(C(=O)N(CCCCN3CCN(Cc4ccccc4)CC3)C1=O)C2(C)C (stereo unspecified),i,0.92,nt,104,nt,nt,nt
O=S(=O)(c1ccc(Cl)cc1)N1CCN(C2CCCCCC2)CC1,i,1.1,0,90,-50,143,-0.8
O=C(OC1CCOC1=O)c1ccc2ccccc2n1 (stereo unspecified),i,0.94,-1,99,8,91,-2.0
Cc1ccc(C(=O)OC2OC(=O)C(Cl)=C2N2CCOCC2)cc1 (stereo unspecified),i,0.86,2,84,nt,nt,-0.8
O=C1C2C3c4ccccc4C(c4ccccc43)C2C(=O)N1c1ccncc1 (stereo unspecified),i,1,8,107,nt,nt,nt
CC(=O)Nc1ccc(S(=O)(=O)NCc2cccnc2)cc1,i,1,2,37,-53,57,0.3
COCC(=O)Nc1ccc(Br)cc1,i,1.1,2,97,73*,44*,-3.8
O=C(CSc1nc2ccccc2s1)N/N=C/c1ccccc1C(=O)O,i,0.89,nt,103,nt,nt,nt
CCCCCCCOC1(c2ccccc2)OC(=O)c2ccccc21 (stereo unspecified),i,0.79,8,100,nt,nt,-2.4

# Continuation.
SMILES,HSV replic up,HSV replic up primary fold,PKD1 inh,RGS16-Gao HTS,INS promoter inh,INS promoter inh cell count,GALR2 agonist
CN1CCN(C(=O)C(Cc2ccccc2)NS(=O)(=O)c2ccc3c(c2)CCC(=O)N3)CC1 (stereo unspecified),i,0.97,-7,111,nt,nt,-0.7
Cc1cc(C(=O)CSc2nc(N)cc(=O)[nH]2)c(C)n1CCc1ccc(Cl)cc1,i,0.93,-7,99,-20,114,-1.3
Cc1ccc(CNC(=O)CSc2nnnn2C)cc1,i,0.9,-4,103,-117,49,-1.7
CCC(CC)C(=O)Nc1nnc(-c2cccs2)s1,i,0.93,-3,99,nt,nt,-1.2
Cc1ccc2c(c1)Oc1ccc(NC(=O)CCCl)cc1C(=O)N2,i,0.83,-8,100,nt,nt,nt
CN(C)c1ccc(C(=O)OCC(=O)Nc2ccc(S(N)(=O)=O)cc2)cc1,i,0.9,-6,95,nt,nt,-1.7
COc1cc(C)nc(N2CCC(C(N)=O)CC2)n1,i,0.85,-2,102,3,100,-1.1
Cc1ccc(CNC(=O)c2ccc(C#CC(C)(C)O)s2)cc1,i,0.91,-6,102,-20,78,-4.0
Cc1cc(C(=O)OCC(=O)NC(=O)c2cccn2C)c2ccccc2n1,i,1,nt,86,nt,nt,nt
CC(Oc1cccc(Cl)c1)C(=O)NCCCCc1ccccc1 (stereo unspecified),i,0.99,2,100,30,102,-0.3
Cc1cccn2c(=O)c3cc(C(=O)NCC4CCCO4)n(C)c3nc12 (stereo unspecified),nt,nt,-5,nt,-38,133,-1.6
COc1ccc(N2CCN(C(c3nnnn3CCc3ccccc3)C(C)C)CC2)cc1 (stereo unspecified),i,0.95,-6,99,nt,nt,0.6
CCCc1nnc(NC(=O)CCC(=O)N2CCCCCC2)s1,i,0.92,10,104,0,127,-1.7
CN(CCOC(=O)c1ccc2c(c1)OCCO2)C(C)(C)C,i,0.96,-4,105,-17,143,-2.1
CN=C(Nc1cc(C)nn1-c1ccccc1)c1ccc(F)cc1,i,1.2,-4,99,0,131,-0.7
COc1ccc(CCNC(=O)C(=O)NCC2OCCN2S(=O)(=O)c2ccc(Br)cc2)cc1OC (stereo unspecified),i,0.92,-5,103,nt,nt,-0.1
O=C(Cn1cc2c(n1)CCCCC2)NC1CCCCCC1,i,1.1,-8,104,nt,nt,-0.4
FC(F)(F)c1ccc(N2CCOCC2)c(NC2=NCCCCC2)c1,i,0.99,17,100,nt,nt,-1.5
CC1(C)CC(=O)C(CCCN2C(=O)c3ccccc3C2=O)C(=O)C1,i,0.82,-9,101,nt,nt,-1.3
NS(=O)(=O)c1ccc(N=Cc2c(O)n(-c3nccs3)c(=O)c3ccccc23)cc1,i,0.84,nt,96,nt,nt,nt
O=C(C1CCCN(Cc2ccccc2F)C1)N1CCc2ccccc2C1 (stereo unspecified),i,1,nt,102,nt,nt,nt
C=CCOC(=O)C1=C[C@@H](c2ccc(C(F)(F)F)cc2)[C@H](CCCO)[C@@H](OCC)O1,i,0.84,9,99,nt,nt,nt
N=c1scc(-c2ccccc2)n1/N=C/c1ccco1,i,1,-6,90,nt,nt,-1.1
CCN1CCCC1CNC(=O)COc1cc(=O)n(C)c2ccccc12 (stereo unspecified),i,0.98,3,106,nt,nt,-1.5
Cc1ccc(-c2nc(-c3cccnc3)sc2CC(=O)Nc2ccc3nc(C)sc3c2)cc1,i,0.81,-4,101,-18,100,-0.5
# Next section.
SMILES,HSV replic up,HSV replic up primary fold,PKD1 inh,RGS16-Gao HTS,INS promoter inh,INS promoter inh cell count,GALR2 agonist
Cc1nc(CSc2n[nH]c(=O)n2-c2cccc(F)c2)cs1,i,1.1,nt,107,nt,nt,nt
CCOC(=O)N1CCC(NC(=O)C(NC(=O)C2CCC(C)CC2)C(C)CC)CC1 (stereo unspecified),nt,nt,-5,108,17,80,-2.3
C/C=C/c1ccc(OCc2cc(=O)n3cc(C)ccc3n2)c(OC)c1,i,1.2,nt,98,nt,nt,nt
O=C(COC(=O)CCC1CCCC1)Nc1ccc(Cl)cn1,i,0.93,-3,97,0,127,-1.6
O=C1OCC2=C1C(c1ccc(F)cc1)CC(=O)N2c1ccccc1 (stereo unspecified),i,0.82,4,94,nt,nt,nt
CCOC(=O)c1sc(NC(=O)C(CC)OC(=O)C(CC(C)C)NC(=O)c2ccccc2)nc1C (stereo unspecified),i,1,-9,101,0,87,-2.9
C/C=C(\C)CN1CCN(c2ccccc2)CC1,i,1,-6,81,-39,105,-0.9
CCc1c(C)nc2ncnn2c1NCCc1ccc(OC)c(OC)c1,i,0.9,-2,105,-31,45,-1.8
O=C(Nc1nccs1)c1ccc(Br)c(S(=O)(=O)N2CCOCC2)c1,i,0.68,-1,107,-119,95,-1.5
O=C(CN1C(=O)NC2(CCCC2)C1=O)NCC1CCCO1 (stereo unspecified),i,0.59,-10,104,nt,nt,nt
CN1CCC(CNC(=O)Nc2csc3ccccc23)CC1,i,1,nt,102,nt,nt,nt
O=C1CS/C(=N/N=C/c2ccccc2OS(=O)(=O)c2ccccc2)N1,i,1,-9,87,31,133,-1.2
COc1cc(C2N(c3ccc(F)cc3)C(=O)C3CCCN32)cc(OC)c1OC (stereo unspecified),i,1.1,-8,100,nt,nt,-1.4
CC(C)CC(=O)Nc1sc2c(c1C#N)CC(C)(C)NC2(C)C,i,0.88,-2,94,-8,123,-0.1
CCOC(=O)Cc1csc(NC(=O)c2ccc(NC(C)=O)cc2)n1,i,1,-8,100,32,97,-0.9
CC(C)(C)C1=Nn2c(nnc2-c2ccccc2F)SC1,i,0.98,4,99,21,108,-2.2
Nc1ccc(C(=O)N/N=C2\CCCc3c2[nH]c2ccccc32)cc1,i,0.93,-11,102,0,188,-3.3
CCC(c1nnc(SCC(=O)Nc2ccc(Cl)cc2C(F)(F)F)n1C1CCCCC1)N(C)C (stereo unspecified),i,1.1,-6,97,nt,nt,-0.2
Cc1cc(Cl)ccc1OCC(=O)N/N=C/c1ccc(OC2OC(CO)C(O)C(O)C2O)cc1 (stereo unspecified),i,1,nt,98,nt,nt,nt
COc1cccc(N2C(=O)/C(=C\c3cccs3)NC2=S)c1,i,0.87,11,97,nt,nt,nt
O=C(CN1C(=O)C2CC=CCC2C1=O)Nc1nnc(SCc2ccc(Cl)cc2)s1 (stereo unspecified),i,0.9,2,105,-3,165,-0.1
C=CCn1sc(N)c(C(=O)OCC)c1=S,i,0.91,-12,80,-33,4,2.7
COCC(=O)Nc1ccc(Br)cc1C,i,1.1,7,99,24,124,nt
Cc1ccc(NC(=O)COC(=O)CN2C(=O)COc3ccccc32)cc1,i,1,2,71,17,135,-2.4
CC(Cc1ccsc1)NC(=O)CCc1nnc(CCc2ccccc2)o1 (stereo unspecified),i,1,-1,97,nt,nt,nt
Cc1ccc(Nc2nnc(SCC(=O)Nc3cccc(S(=O)(=O)NC4=NCCCCC4)c3)s2)c(C)c1,i,0.8,-3,105,-79,111,-0.2
Fc1ccccc1/C=N/n1cnnc1,i,0.94,-8,94,-11,79,0.1
CCOC(=O)c1ccc(Oc2nc(N(C)C)nc(N(C)C)n2)cc1,i,0.97,-3,100,0,137,0.9
CCN(CC)c1ccc(C2CC(=O)Nc3cc(OC)c(OC)cc32)cc1 (stereo unspecified),i,0.94,1,101,-48,98,-1.1

# Ordered by the number under RGS16-Gao HTS (low to high): some entries from above
Compound,RGS16-Gao HTS
C=CCn1sc(N)c(C(=O)OCC)c1=S,80
CCOC(=O)c1ccc(Oc2nc(N(C)C)nc(N(C)C)n2)cc1,100
O=C(Nc1nccs1)c1ccc(Br)c(S(=O)(=O)N2CCOCC2)c1,107
